VDR inhibitor = vitamin D3 receptor (human) inhibition | VDR-SRC2-3 peptide fluorescence polarization, 2 h | Potency, µM, inactives show max response, negative = inhibition, hits mostly inhibitors | hit rate 0.93% among 400,000; active = well fitted inhibition curve with a large enough effect; inconclusive = small, poorly fitted or top-dose-only effect, or another doubt; inactive = no such curve, though single readings can be large or run the other way; also: series mostly up to about 120 µM
Target sequence (P11473 whole entry, looked up): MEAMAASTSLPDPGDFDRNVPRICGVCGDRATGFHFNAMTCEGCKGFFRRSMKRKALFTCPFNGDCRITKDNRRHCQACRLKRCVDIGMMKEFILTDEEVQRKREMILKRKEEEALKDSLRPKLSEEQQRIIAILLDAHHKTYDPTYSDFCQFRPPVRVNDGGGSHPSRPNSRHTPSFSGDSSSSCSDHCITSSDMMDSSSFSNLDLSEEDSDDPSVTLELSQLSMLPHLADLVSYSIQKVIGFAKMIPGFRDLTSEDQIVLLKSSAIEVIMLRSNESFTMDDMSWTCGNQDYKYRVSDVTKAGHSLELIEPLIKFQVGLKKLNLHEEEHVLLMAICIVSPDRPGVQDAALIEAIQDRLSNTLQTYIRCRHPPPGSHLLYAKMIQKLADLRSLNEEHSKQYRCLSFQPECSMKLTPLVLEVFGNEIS
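Fluorescence polarization assay of small-molecule disruption of VDR binding to coregulator peptide SRC2-3. Compounds and controls pin-transferred, then read after 2 h incubation at ambient room temperature.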
* = called active by the depositor; ? = inconclusive; & = joins results of further samples. % is scaled to controls: 0 for no effect and ±100 for the full control effect; potency is read from the fitted curve at half-maximal effect. This is a subset, so the mix of outcomes need not match the whole.

SMILES	VDR inhibitor
CCOC(=O)CC(NC(=O)c1ccc(C)cc1)c1ccc(C)cc1 (stereo not drawn)	6%
CSc1nc(N)nc2c1ncn2CC(=O)NCc1ccc2c(c1)OCO2	-4%
O=C(N/N=C/c1ccc(O)c(O)c1)c1ccc(CSc2cccc3cccnc23)cc1	3%
CSc1nnc(Cn2c(=O)sc3ccccc32)n1-c1ccccc1	-18%
CCCN1CCN(C(=O)c2nn(-c3ccc(OC)cc3)c(=O)c3c2c2ccccc2n3C)CC1	-1%
CN(CC(=O)Nc1ccc(F)cc1)c1ccc(S(=O)(=O)N2CCCC2)cn1	-4%
CC(C)(C)C1CCC(OCC(O)CN2CCCC2)CC1 (stereo not drawn)	-8%
Cc1ccc(-n2nc(C(=O)NCc3ccco3)c3c4ccccc4n(C)c3c2=O)cc1	-10%
Cc1ccc(C2C(C(=O)O)c3ccccc3C(=O)N2C)c(C)c1 (stereo not drawn)	-17%
CCSc1nc(=O)n(-c2ccccc2)c(C)c1C(C)=S	9%
O=C1C(Cc2ccc(O)cc2)NC(=S)N1Cc1ccccc1 (stereo not drawn)	0%
CN(C)c1ccc(P(=O)(Nc2cccc(C(F)(F)F)c2)N2CCOCC2)c(NC(=O)c2cccs2)c1 (stereo not drawn)	-3%
CCCCN(CC(=O)Nc1c(C)cccc1CC)C(=O)SCC	-5%
CNC(=O)N1c2ccccc2C=Cc2ccccc21	-11%
COc1ccc(OC)c(NC(=O)CSC2=Nc3ccccc3C3=NC(CCC(=O)NC4CCCCC4)C(=O)N23)c1 (stereo not drawn)	2%
COc1cc(OC)c(C(=O)OCC(=O)NCCC2=CCCCC2)cc1OC	-16%
CC(=O)Nc1ccc(S(=O)(=O)N(C)CC(=O)Nc2ccccc2N2CCOCC2)cc1	12%
O=C(Cn1cc(C(F)(F)F)cc(Cl)c1=O)NCCc1ccccc1	14%
Cc1ccc(-n2c(=O)c3cccnc3n2CC(=O)Nc2ccc(Br)cc2)cc1C	-4%
COc1ccc(S(=O)(=O)N(C)CC(=O)NCCC2=CCCCC2)cc1C	14%
Cc1c(NS(=O)(=O)c2ccc(Cl)c(C(=O)OCC(=O)NCc3ccco3)c2)c(=O)n(-c2ccccc2)n1C	?
O=C1NC(c2ccccc2)=C(c2nc3ccccc3s2)C(c2ccccc2)N1 (stereo not drawn)	0%
CC(C)c1nc2n[nH]c(N)c2c2c1CSC(C)(C)C2	-5%
O=C(Nc1ccccc1)N1CCC(C(=O)N2CCCC(C(F)(F)F)C2)CC1 (stereo not drawn)	-29%
CC(C)Cn1c(=O)c2ccccc2n2c(CCC(=O)N3CCN(c4cccc(Cl)c4)CC3)nnc12	-6%
Cc1c(C(=O)O)sc(S(=O)(=O)N2CCN(C(=O)Cc3ccccc3Cl)CC2)c1C(=O)O	-10%
Cc1cc(-c2n[nH]c(=S)n2Cc2ccco2)n(C)n1	-10%
COc1cc2c(cc1OC)-c1cc(N3CCCc4ccccc43)nc(=O)n1CC2	1%
Cc1ccc(S(=O)(=O)NC(=O)Nc2ccccc2F)cc1	5%
COc1cccc(NS(=O)(=O)c2ccc3[nH]cc(C(=O)NC4CCCCC4)c(=O)c3c2)c1	-7%
COc1ccc(C(=O)NC2CC(C)(C)Cc3occc32)cc1 (stereo not drawn)	1%
Cc1ccccc1CN1CCN(CC(=O)NCc2ccccc2)CC1	-9%
N/C(=N\OC(=O)CC1CCCCC1)c1ccc([N+](=O)[O-])cc1	-14%
CCCn1c(N)c(N(CCOC)C(=O)c2ccc(F)cc2)c(=O)[nH]c1=O	-20%
COc1ccc(CN2CCNC(=O)C2CC(=O)N2CCCCO2)cc1OC (stereo not drawn)	3%
CC(C)[C@H](NC(=O)NCCc1ccc(F)cc1)C(=O)O	-1%
CCC(=O)NCCc1nc2ccccc2n1CC(=O)c1ccccc1	-9%
CCCOc1ccc(/C=C2/C(=O)ON=C2C)cc1OCC	?
C=CCOc1c(Br)cc(/C=C2/C(=O)ON=C2C)cc1OC	45µM*
CCOc1ccc(NC(=O)C2CC(=O)N(C(C)C)C2)cc1 (stereo not drawn)	1%
CCOc1cc(CNc2ccc(O)cc2)cc(Cl)c1OCc1ccccc1	-6%
COC(=O)c1ccc(Oc2c(C)oc3cc(OCc4cnn(-c5ccccc5)c4)ccc3c2=O)cc1	-9%
Cc1cccc(Nc2c3c(nc4nncn24)CCC3)c1C	9%
CCOc1ccccc1C1CC(=O)NC(SCC)=C1C#N (stereo not drawn)	-4%
CC(=O)Nc1ccc(NC(=O)CCCn2nc(C)c3sc4ccccc4c3c2=O)cc1	11%
CCOC(=O)C1(Cc2cccc(Cl)c2)CCCN(C(=O)CCSC)C1 (stereo not drawn)	-17%
COc1cccc(N2CCN(S(=O)(=O)c3cc4c(cc3Cl)NC(=O)CO4)CC2)c1	-14%
COC(=O)c1ncn(C2OC(COC(C)=O)C(OC(C)=O)C2OC(C)=O)n1 (stereo not drawn)	6%

An excerpt from above in order of their number in VDR inhibitor, lowest first:
SMILES	VDR inhibitor
COC(=O)c1ccc(Oc2c(C)oc3cc(OCc4cnn(-c5ccccc5)c4)ccc3c2=O)cc1	-9%
CCOc1ccccc1C1CC(=O)NC(SCC)=C1C#N (stereo not drawn)	-4%
CCOc1ccc(NC(=O)C2CC(=O)N(C(C)C)C2)cc1 (stereo not drawn)	1%
COC(=O)c1ncn(C2OC(COC(C)=O)C(OC(C)=O)C2OC(C)=O)n1 (stereo not drawn)	6%

The list continues:
SMILES	VDR inhibitor
Cc1ccc(NC(=O)/C(C#N)=N/Nc2ccc(C(=O)O)cc2)c(C)c1	1%
Cc1cc(C(=O)NCCc2ccccc2)c2cc(F)ccc2n1	?
COc1cc(/C=N\NC(=O)CNC(=O)c2cccc([N+](=O)[O-])c2)ccc1O	-16%
COCCn1c(=O)c(-c2ccccc2)nc2cnc(Oc3cccc(Cl)c3)nc21	?
O=C(Nc1ncc2c(n1)-c1ccccc1CC2)C1CC1	-5%
CC(C)(C)C(=O)OCOC(=O)[C@@H]1N2C(=O)[C@@H](NC(=O)[C@H](N)c3ccccc3)[C@H]2SC1(C)C	4%
COc1ccc(S(=O)(=O)N(CCN2CCOCC2)Cc2cc(OC)ccc2OC)cc1	-3%
CCn1c(SCC(=O)OC)nnc1-c1ccc(C)cc1	12%
O=C(Nc1ccc(Cl)cc1)Nc1nnc(SCc2ccccc2)s1	9%
O=C(Nc1c(F)cccc1F)c1cnc(N2CCN(c3ccccn3)CC2)c2ccccc12	5%
N#Cc1ccc(Oc2ccc(-c3nc4ccccc4nc3-c3ccccc3)cc2)cc1C#N	4%
CCN=C1SC(C(=O)Nc2cccc(C)c2)CC(=O)N1CC (stereo not drawn)	-15%

3 entries picked at random from the list so far:
SMILES	VDR inhibitor
COc1cc(/C=N\NC(=O)CNC(=O)c2cccc([N+](=O)[O-])c2)ccc1O	-16%
CC(C)(C)C(=O)OCOC(=O)[C@@H]1N2C(=O)[C@@H](NC(=O)[C@H](N)c3ccccc3)[C@H]2SC1(C)C	4%
CCn1c(SCC(=O)OC)nnc1-c1ccc(C)cc1	12%

Structures listed so far containing a Cl atom (nine):
SMILES	VDR inhibitor
O=C(Cn1cc(C(F)(F)F)cc(Cl)c1=O)NCCc1ccccc1	14%
Cc1c(NS(=O)(=O)c2ccc(Cl)c(C(=O)OCC(=O)NCc3ccco3)c2)c(=O)n(-c2ccccc2)n1C	?
CC(C)Cn1c(=O)c2ccccc2n2c(CCC(=O)N3CCN(c4cccc(Cl)c4)CC3)nnc12	-6%
Cc1c(C(=O)O)sc(S(=O)(=O)N2CCN(C(=O)Cc3ccccc3Cl)CC2)c1C(=O)O	-10%
CCOc1cc(CNc2ccc(O)cc2)cc(Cl)c1OCc1ccccc1	-6%
CCOC(=O)C1(Cc2cccc(Cl)c2)CCCN(C(=O)CCSC)C1 (stereo not drawn)	-17%
COc1cccc(N2CCN(S(=O)(=O)c3cc4c(cc3Cl)NC(=O)CO4)CC2)c1	-14%
COCCn1c(=O)c(-c2ccccc2)nc2cnc(Oc3cccc(Cl)c3)nc21	?
O=C(Nc1ccc(Cl)cc1)Nc1nnc(SCc2ccccc2)s1	9%

Following part:
SMILES	VDR inhibitor
Cc1ccc(NC(=O)CN2C(=O)CCc3cc(S(=O)(=O)N4CCCCC4)ccc32)cc1C	4%
CCOc1ccc(CCNC(=O)C2CCN(c3nn4c(=O)cc(C)nc4s3)CC2)cc1	4%
Cc1ccc(Nc2nnc(-c3ccc(C)c(S(=O)(=O)N4CCN(C)CC4)c3)c3ccccc23)c(C)c1	1%
Cc1ccc(C(=O)NN2C(=O)C3C4c5ccccc5C(c5ccccc54)[C@@H]3C2=O)cc1 (stereo partly drawn)	6%
CC1Cc2ccccc2N1C(=O)c1nn(C)cc1Br (stereo not drawn)	-17%
C#C[C@]1(O)CC[C@H]2[C@@H]3CCC4=Cc5oncc5C[C@]4(C)[C@H]3CC[C@@]21C	-5%&-13%
COC(=O)c1ccccc1NC(=O)c1ccc2nccnc2c1	-11%
O=C1CC(C(=O)Nc2ccccc2)C2(CCCC2)O1 (stereo not drawn)	10%
Cc1ccc(C(c2c(O)cc(C)n(Cc3ccco3)c2=O)N2CCC(C)CC2)cc1 (stereo not drawn)	19%
Cc1cccc(NC(=O)CSCC(=O)Nc2ccccc2N2CCCCC2)c1	13%
COc1ccc2c(C)cc(=S)[nH]c2c1	-4%
CCCCNC(=O)c1onc(CSc2nc3ccccc3[nH]2)c1C(=O)NCCCC	-4%
CCCC1(C)C(C#N)(C#N)C1(C#N)C#N	10µM*
Cc1ccccc1-n1c(SCC(=O)O)nc2sc3c(c2c1=O)CCCC3	-7%
N#Cc1cccnc1N1CCN(C(=O)COCC(=O)O)CC1	4%
Cc1ccc(C(=O)Nc2cccnc2N2CCN(C)CC2)cc1	2%
Cc1cc(F)ccc1NS(=O)(=O)c1ccc(-n2cccn2)cc1	5%
Cc1cc(NC(=O)c2cc(Cl)ccc2Cl)ccc1-c1cc2ccccc2oc1=O	-28%
O=C(CN1C(=O)CS/C1=C\c1nc(-c2ccc(Cl)cc2)cs1)Nc1cccnc1Cl	-11%
CCC1(C)Cc2c(C#N)c(N)sc(=S)c2CO1 (stereo not drawn)	3%
C[C@@H](C(=O)NCCc1ccc(F)cc1)N1C(=O)N2CCc3c([nH]c4ccccc34)[C@@]2(C)C1=O	4%
CCOCCCn1c(SC(C)C(=O)NCC2CCCO2)nc2sc(C)c(C)c2c1=O (stereo not drawn)	22%
O=C(CCCOc1ccc(Cl)cc1)NC1CCCCC1	-12%
CCOCCCNC(=O)c1ccc2c(c1)ncn2-c1ccccc1OC	17%
CC(C)CC(c1nnnn1Cc1ccccc1)N1CCN(C(=O)c2ccco2)CC1 (stereo not drawn)	0%
O=C1Cc2cc([N+](=O)[O-])ccc2N1c1c(Cl)cccc1Cl	-14%
O=C(O)CSc1nnc(COc2cccc3ccccc23)o1	-13%
COc1ccc(CNC(=O)CN(c2ccc(OC)c(Cl)c2)S(=O)(=O)c2ccc(C)cc2)cc1	-3%
Oc1ccc(/C=N/Nc2nc(-c3ccccc3F)nc3ccccc23)c(O)c1	-6%
O=C(CN1C(=O)c2ccccc2C1=O)NCCc1c[nH]c2ccccc12	0%
COc1cccc(NC(=O)NNC(=O)C(C)Oc2ccc3ccccc3c2)c1 (stereo not drawn)	-9%
Cc1cc2n(n1)C(c1cn(-c3ccccc3)nc1C)Nc1c(C)cccc1-2 (stereo not drawn)	2%
Cn1c(=O)c([N+](=O)[O-])c(N2CCSCC2)c2ccccc21	7%
COC(=O)CN1C(=O)[C@H]2[C@@H](C3CC3)N3C(=O)CN(CCO)C(=O)[C@@]3(Cc3ccccc3)[C@H]2C1=O	-18%
CC(C)(C)OC(=O)N1CCC(c2c(C(=O)N3CCN(c4cccc(Cl)c4)CC3)cnn2-c2cccc(Cl)c2)CC1	19%
CCc1cc(=O)oc2cc(C)c(CN3CCCC(C)C3)c(O)c12 (stereo not drawn)	-18%
COc1cc(/C(C)=N/NC(=O)CN2CCN(S(=O)(=O)c3ccc(C)cc3)CC2)ccc1O	-6%
CCN(CC)S(=O)(=O)c1ccc(-c2nnc(SCc3nnc(-c4ccccc4)o3)o2)cc1	-9%
Cc1ccsc1C(=O)Nc1ccccc1N1CCCC1	-15%
CC(c1ccncn1)N(C)Cc1nc(-c2ccc(C(F)(F)F)cc2)no1 (stereo not drawn)	8%
NC(=O)C1CCN(Cc2nnnn2Cc2ccco2)CC1	8%
CC(OC(=O)CNC(=O)c1ccco1)C(=O)N(C)c1ccccc1 (stereo not drawn)	-15%
c1ccc(-c2cn(-c3ccccc3)c3[n+]2CCS3)cc1	2%
CCC(C)NC(=O)C1c2ccccc2Oc2ccccc21 (stereo not drawn)	13%
N#CC(=C1SC=CS1)c1nc(-c2ccccc2)cs1	-1%
C=CCn1c(SCc2cc(=O)n3ccsc3n2)nc2cc(Cl)ccc2c1=O	-29%
CCCNC(=O)C1CC(=O)N(c2ccc(OCc3ccc(Cl)cc3)cc2)C1 (stereo not drawn)	-6%
COc1ccc(CCn2c(C)cc(C(=O)COC(=O)c3cnccn3)c2C)cc1	2%

Laid out differently: three of the compounds above.
SMILES: NC(=O)C1CCN(Cc2nnnn2Cc2ccco2)CC1
  VDR inhibitor: 8%

SMILES: CC(OC(=O)CNC(=O)c1ccco1)C(=O)N(C)c1ccccc1 (stereo not drawn)
  VDR inhibitor: -15%

SMILES: c1ccc(-c2cn(-c3ccccc3)c3[n+]2CCS3)cc1
  VDR inhibitor: 2%

Further records.
SMILES	VDR inhibitor
Cc1oc2c(O)c(O)ccc2c(=O)c1-c1ccc(Cl)cc1	-18%
COc1cccc(NC2c3ccccc3C(=O)N2Cc2ccccc2Cl)c1 (stereo not drawn)	11%
COCCCn1c(SCc2nnc(-c3ccc(OC)c(OC)c3)o2)nc2ccccc2c1=O	23%
CC(C)=CCC1C(=O)N(c2ccccc2)N(c2ccccc2)C1=O	25µM*
CNC(=O)NC(=O)C(C)Oc1ccccc1F (stereo not drawn)	6%
CCO[C@H]1OC(C(=O)NCc2ccccc2)=C[C@@H](C(C)(C)C)[C@@H]1CCCO	-11%

Source: PubChem
